Mtb growth: Mycobacterium tuberculosis H37Rv growth inhibition, cell based, confirmatory dose response (AID 1949); M. tuberculosis H37Rv growth inhibition; most inactive calls were filed without a number and no value below 0 was filed; inhibition, % at 10 µg/mL; hits with a dose series show IC50 in µg/mL; hit rate 1.6% among 100,000;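 active means confirmed in a dose series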;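 further: bacteria grown 7 days with compound before Alamar blue readout; 0% = untreated bacteria and 100% = reference antibiotic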
Starred values were filed as active, the others as inactive; i = inactive. Only part of the results is shown. The share of hits here may be higher or lower than overall.

SMILES | Mtb growth
Cc1cc(C)cc(C(=O)NC(=S)Nc2ccc(Br)cc2)c1 | i
CC(NC(=O)CCCN1C(=O)c2ccccc2C1=O)c1ccccc1 (stereo not given) | 2%
CCOc1cc(-c2nnc(-c3ccco3)o2)cc(OCC)c1OCC | i
COC(=O)c1ccc(C(=O)OC)c(NC(=O)/C=C/c2ccc(Cl)cc2)c1 | 2%
COC(=O)C1=CN(Cc2ccc(OC)cc2)C=C(C(=O)OC)C1c1ccsc1 | 1%
COc1ccc(N2CCN(C(=O)C(C)Oc3ccc(Br)cc3)CC2)cc1 (stereo not given) | 3%
Cc1ccc(CN2C3=NC(=O)CN3c3ccccc32)cc1 | 2%
CCc1cc(=O)oc2cc(OC(C)C)ccc12 | i
COc1ccc(-c2csc(NC(=S)NC(=O)c3ccc4ccccc4c3)n2)cc1 | i
O=C1C(=O)N(Cc2cccs2)c2ccccc21 | i
O=C(Nc1ccccc1)Nc1cccc2nsnc12 | 49%
Cc1nnc(NC(=O)C2CC(=O)N(c3ccc(Cl)cc3)C2)s1 (stereo not given) | i
COc1cccc(NC(=O)C(=O)NCc2ccco2)c1 | i
COc1cccc(C2Oc3ccccc3C=C2[N+](=O)[O-])c1OC (stereo not given) | i
O=C(CCCc1ccccc1)Nc1cc(Cl)ccc1C(=O)O | i
COC(=O)c1ccc(C)c(NC(=O)CN2C(=O)c3ccccc3S2(=O)=O)c1 | i
COc1ccc(N(CC(=O)Nc2ccc(C)cc2C)S(C)(=O)=O)cc1Cl | i
COc1cc(NC(=O)COc2ccc(Br)cc2C)cc(OC)c1 | i
Cc1c(SCCO)c(=O)[nH]c2cc3c(cc12)OCO3 | i
O=C(OCc1nnc(-c2ccccc2)o1)c1cccs1 | 41%

A draw from above in order of SMILES length, rising.
SMILES | Mtb growth
O=C(Nc1ccccc1)Nc1cccc2nsnc12 | 49%
O=C1C(=O)N(Cc2cccs2)c2ccccc21 | i
COc1cccc(NC(=O)C(=O)NCc2ccco2)c1 | i
O=C(CCCc1ccccc1)Nc1cc(Cl)ccc1C(=O)O | i
COc1cc(NC(=O)COc2ccc(Br)cc2C)cc(OC)c1 | i
Cc1cc(C)cc(C(=O)NC(=S)Nc2ccc(Br)cc2)c1 | i
CCOc1cc(-c2nnc(-c3ccco3)o2)cc(OCC)c1OCC | i
CC(NC(=O)CCCN1C(=O)c2ccccc2C1=O)c1ccccc1 (stereo not given) | 2%
COc1cccc(C2Oc3ccccc3C=C2[N+](=O)[O-])c1OC (stereo not given) | i
COc1ccc(N2CCN(C(=O)C(C)Oc3ccc(Br)cc3)CC2)cc1 (stereo not given) | 3%
COc1ccc(N(CC(=O)Nc2ccc(C)cc2C)S(C)(=O)=O)cc1Cl | i
COC(=O)C1=CN(Cc2ccc(OC)cc2)C=C(C(=O)OC)C1c1ccsc1 | 1%
COC(=O)c1ccc(C(=O)OC)c(NC(=O)/C=C/c2ccc(Cl)cc2)c1 | 2%
COC(=O)c1ccc(C)c(NC(=O)CN2C(=O)c3ccccc3S2(=O)=O)c1 | i

Further records:
SMILES | Mtb growth
COc1ccc(CC(=O)Nc2cccc(F)c2C)cc1 | i
Cc1cc(NC(=O)c2cc3nc(C4CC4)cc(C(F)(F)F)n3n2)no1 | i
COc1ccc(N(CC(=O)Nc2cc(C)ccc2OC)S(C)(=O)=O)c(OC)c1 | i
Cc1cccc(OCCN2CCNC2=S)c1 | i
O=C(Nc1nc2c(s1)C(=O)CCC2)c1ccccc1Cl | 2%
O=[N+]([O-])c1cccc(-c2nc(Oc3ccc(Cl)cc3)c3ccccc3n2)c1 | i
CC(=O)c1ccc(Oc2ccc(-c3cnc4ccccc4n3)cc2[N+](=O)[O-])cc1 | 6%
COCc1cc(C)nc2sc(C(=O)Nc3ccc(NC(C)=O)cc3)c(N)c12 | i
Cc1ccc(NC(=S)Nc2c(C)cccc2C)cc1 | i
Cc1cccc(CSc2nnc(NC(=O)c3ccco3)s2)c1 | i
CCOC(=O)C1=C(C)N=c2s/c(=C\c3c4ccccc4cc4ccccc34)c(=O)n2C1c1ccccc1Cl (stereo not given) | i
Cc1ccc(S(=O)(=O)N2CCN(C(=O)Cc3ccccc3)CC2)cc1 | 2%
O=S(=O)(Nc1cccc(CCc2ccccn2)c1)c1ccc2ccccc2c1 | i
O=S(=O)(Nc1ccc(Br)cc1F)c1ccc2c(c1)OCCO2 | 1%
CC(=O)c1cccc(NC(=O)C2C3C4CCC(C4)C23)c1 (stereo not given) | 6%
c1ccc(Cc2nnc3sc(-c4ccccn4)nn23)cc1 | i
O=C(O)C(Cc1ccccc1)N1C(=O)/C(=C/c2ccc([N+](=O)[O-])cc2)SC1=S (stereo not given) | i
Cc1cccc2sc(NC(=O)CSc3nc4ccccc4[nH]3)nc12 | i
CC(C)(Oc1ccc(Cl)cc1)C(=O)Nc1ccc(Cl)c(Cl)c1 | i
S=C(Nc1ccccc1Cl)N1CCN(C(c2ccccc2)c2ccccc2)CC1 | i

2 entries from above, with tabs.
smiles	Mtb growth
CC(=O)c1ccc(Oc2ccc(-c3cnc4ccccc4n3)cc2[N+](=O)[O-])cc1	6%
COCc1cc(C)nc2sc(C(=O)Nc3ccc(NC(C)=O)cc3)c(N)c12	i

Next part
SMILES | Mtb growth
CCN1C(=O)c2ccc(C(=O)NCc3ccccc3)cc2C1=O | i
Cc1ccc(Cl)cc1N1CCN(C(=O)COc2ccc(S(=O)(=O)NC(C)C)cc2)CC1 | i
COc1ccc(NC(=O)c2cc(-c3cccc(Cl)c3)nc3ccccc23)cc1OC | 22%
CN(C)CCOc1ccc(Cl)c2ccccc12 | 12%
S=C(NCCn1cc(Br)cn1)NCc1ccco1 | i
Cc1cc(CN2CCN(CCC#N)CC2)c(O)c(C2(C)CCCCC2)c1 | i
CC(=O)c1cccc(NC(=O)c2ccc([N+](=O)[O-])cc2Cl)c1 | 1%
S=C(Nc1ccc(Nc2ccccc2)cc1)N1CCN(c2ccccc2)CC1 | 4%
Cc1cc(Cl)ccc1NC(=O)C12CCC(C)(C(=O)C1=O)C2(C)C (stereo not given) | i
O=C(Nc1ccc(F)c(Cl)c1)c1ccc(Br)o1 | i
O=C(NCC1c2ccccc2CCN1C(=O)c1cccs1)C1CCCCC1 (stereo not given) | i
CCOC(=O)c1[nH]cnc1C(=O)Nc1ccncc1 | i
CCN1CCN(c2ccc(NC(=O)c3cccc(I)c3)cc2)CC1 | i
Cc1ccc(-c2noc(COc3ccc(C(C)C)cc3Br)n2)cc1 | i
O=C(c1cccc(Cl)c1)N1CCN(CC2CC=CCC2)CC1 (stereo not given) | i
C=CCn1c(SCC(=O)Nc2ccccc2F)nnc1C(NC(=O)c1ccccc1)C(C)C (stereo not given) | 1%
Cc1cc(C)nc(NS(=O)(=O)c2ccc(Nc3nc(-c4ccc(O)c(O)c4)cs3)cc2)n1 | 3%
COc1ccc(NC(=O)C2CCCO2)c(C)c1 (stereo not given) | i
O=C(Cc1ccccc1Cl)Nc1ccc(S(=O)(=O)Nc2nccs2)cc1 | 1%
CN(CC(=O)NCc1cccnc1)S(=O)(=O)c1ccc(Br)cc1 | i
O=S(=O)(/C=C/c1ccccc1)N1CCN(c2ccccn2)CC1 | i
COc1ccc(C)cc1NC(=O)CN(c1cccc([N+](=O)[O-])c1)S(C)(=O)=O | i
Cc1cc(OCC(=O)Nc2cc(-c3nc4ncccc4o3)ccc2C)ccc1Cl | i
Cc1ccc(OCCSC2=NN2c2cc(C)nc(N)n2)cc1 | i
Cc1cccc(C(=O)NCCN2CCOCC2)c1[N+](=O)[O-] | i
CCOC(=O)COc1cc(C)cc2oc(=O)cc(-c3ccccc3)c12 | i
CCOCCC(=O)N(Cc1ccccc1)C(C)C | i
O=C(NCCc1cccc(Cl)c1)c1ccc([N+](=O)[O-])cc1Cl | i
Cc1ccc(C2C(C#N)=C(N)N(c3ccc(C(F)(F)F)cc3)C3=C2C(=O)CCC3)c(C)c1 (stereo not given) | 20%
CC(C)=CCOc1ccc2c(C)c(CCC(=O)O)c(=O)oc2c1 | i
N#C/C(=C/c1cccs1)c1ccc(C#N)cc1 | i
O=C1CC(n2cnc3ccccc32)C(=O)N1c1ccc(F)cc1 (stereo not given) | i
O=C(Nc1c(C(=O)N2CCC(Cc3ccccc3)CC2)cnn1-c1ccccc1)c1ccco1 | i
COc1ccc(NC(=O)CN(c2cccc(Br)c2)S(C)(=O)=O)c(OC)c1 | 2%
O=C1C2C3C=CC(C3=C(c3ccccc3)c3ccccc3)C2C(=O)N1C1CCCCC1 (stereo not given) | i
CS(=O)(=O)N(CC(=O)Nc1ccc(Cl)c(C(F)(F)F)c1)C1CCCCC1 | 6%
O=C(CSc1ccc(Cl)cc1)Nc1ccc(N2CCN(C(=O)c3cccs3)CC2)cc1 | i
COc1ccc(C(C)(C)C)cc1NC(=O)Cc1cccs1 | 3%
COc1ccc(S(=O)(=O)N2CCc3ccccc3C2)c(Cl)c1Cl | i
O=C(c1ccc2c3c(cccc13)CC2)N1CCN(Cc2ccccc2)CC1 | 3%
COCc1cc(C)nc2sc(C(=O)Nc3ccccc3Br)c(N)c12 | i
CC1=C(C(=O)OC(C)(C)C)C(c2ccccc2F)NC(=S)N1 (stereo not given) | i
CCCCNc1nc2ccccc2nc1NS(=O)(=O)c1ccc(Cl)cc1 | 1%
CCc1ccc(NC(=O)CSc2nnc(NC(=O)c3ccccc3Br)s2)cc1 | i
O=C(CCS(=O)(=O)c1ccc(F)cc1)N1CCOCC1 | i
C=CCNC(=O)c1ccccc1NC(=O)CN(c1cccc(C)c1)S(=O)(=O)c1ccc(C)cc1 | 1%
Cc1ccc(C(=O)NC2CC3CCC2C3)cc1 (stereo not given) | i
O=C(NC1(C(F)(F)F)N=C(c2ccccc2)NC1=O)c1ccc(Cl)cc1Cl (stereo not given) | 1%
CS(=O)(=O)N1CCN(c2ccc(F)cc2)CC1 | i
CCC(CO)NCc1ccc(OC)cc1 (stereo not given) | 0%
O=C(CCNC(=O)OCc1ccccc1)Oc1cc2oc(=O)c3c(c2cc1Cl)CCCC3 | i
CCOc1ccc(N2CC(C(=O)NCC3CCCO3)CC2=O)cc1 (stereo not given) | i
COc1cc(Br)cc2cc(C(=O)NC(C)c3ccccc3)c(=O)oc12 (stereo not given) | i
COC(=O)Cc1c(C)c2cc(Cl)c(OCC(=O)c3ccc(-c4ccccc4)cc3)cc2oc1=O | i
COc1ccccc1OCCOCCNCCO | i
O=C(CN1CCOCC1)N1c2ccccc2Sc2ccccc21 | i
Cc1ccc(OC(=O)c2cn(-c3ccccc3)nc2-c2cccnc2)cc1 | i
O=C(Nc1ccc(OC(F)(F)F)cc1)c1ccc2nc[nH]c2c1 | 7%
COc1ccccc1OC(C)C(=O)Nc1ccccc1C (stereo not given) | i
O=S(=O)(c1ccc(NC(=S)Nc2ccc3c(c2)OCO3)cc1)N1CCCCCC1 | i

2 compounds drawn at random from those above:
SMILES | Mtb growth
O=C(CCS(=O)(=O)c1ccc(F)cc1)N1CCOCC1 | i
O=C(CN1CCOCC1)N1c2ccccc2Sc2ccccc21 | i

New compounds follow:
SMILES | Mtb growth
CCc1ccc(CN2CCCC(C(=O)N(C)Cc3ccccc3)C2)cc1 (stereo not given) | i
CCCS(=O)(=O)c1nc(S(=O)(=O)c2ccc(C)cc2)c(N2CCOCC2)s1 | i
Cc1ccc(NC(=S)Nc2ccc(Cl)cc2)cc1 | 0%
CCC(C)NC(=O)c1ccccc1NC(=O)CN(c1cc(C)ccc1OC)S(C)(=O)=O (stereo not given) | i
CC(C)(C)c1cc(C(=O)CN2CCCCC2)cc(C(C)(C)C)c1O | i
Cc1ccc(C(=O)Nc2ccc(OC(C)C)cc2)cc1C | i
C=CCN1C(=O)C(O)(CC(=O)c2cccnc2)c2cc(Br)ccc21 (stereo not given) | i
O=C(COc1ccccc1)NCCCCc1ccccc1 | i
CCOc1ccc(C(=O)NC(=S)Nc2ccc(C(=O)O)c(Cl)c2)cc1Cl | 15%
Cc1ccc(S(=O)(=O)N(CC(=O)N2CCC(C)CC2)c2ccccc2F)cc1 | i
N#Cc1cn(CC(=O)N2CCCCC2)c2ccccc12 | i
O=C(Nc1ccc(N2CCOCC2)cc1)c1ccco1 | i
COc1ccccc1NC(=S)NCCc1ccccn1 | i
O=C(Nc1ccc(I)cc1F)c1sc2cc(Cl)ccc2c1Cl | i
C=CCn1c(COc2ccc(C)cc2OCC)nnc1SCC(=O)Nc1nccs1 | i
Cc1ccc(C(C)C)cc1S(=O)(=O)N1CCN(c2cccc(Cl)c2)CC1 | i
CCCOc1cccc(-c2nnc(NC(=O)C3CCCCC3)s2)c1 | i
COc1cccc(-c2nc3ccc([N+](=O)[O-])cc3o2)c1 | i
Cc1cccc(NC(=S)NN2CCOCC2)c1C | i
CCn1c(SCC(=O)Nc2ccc(Br)cc2F)nnc1C(C)Oc1ccccc1 (stereo not given) | 2%
O=C(CC12CC3CC(C1)CC(CC(=O)NC1=NCCS1)(C3)C2)NC1=NCCS1 | i
O=C(CCS(=O)(=O)Cc1ccccc1)Nc1ccc2c(c1)OCCO2 | i
Cc1ccc(NC(=O)c2ccc(OC(=O)C(C)C)cc2)cc1 | i
COc1cc2c(cc1NC(=O)c1cc(-n3cnnc3)ccc1Cl)oc1ccccc12 | i
CCN(CC)c1ccc(C(=O)Nc2cccc(C)c2)cc1[N+](=O)[O-] | 7%
COc1ccc(OCc2nn(-c3ccccc3)c(N)c2-c2ccccc2)cc1 | 9%
COc1ccc(C(CCN(Cc2ccc(OC)c(OC)c2)C(C)=O)c2ccccc2)cc1 (stereo not given) | i
COC(=O)c1sc(NC(=O)c2sc3cccc(F)c3c2Cl)nc1C | i
Cc1c(C(=O)OC(C)C)[nH]c2c1C(=O)CC(C)(C)C2 | 4%
CCOc1cc(C(C#N)N2CCCCC2)ccc1OC (stereo not given) | i
COC(=O)c1ccccc1NC(=O)Cn1c(C(F)(F)F)nc2ccccc21 | 2%
NC(=O)COc1ccc(C=O)cc1Br | i
CC(C)CC(=O)Nc1scc(-c2ccccc2)c1C(=O)N1CCCCC1 | 2%
CCC(C)c1ccc(OCCn2ccnc2)cc1 (stereo not given) | 2.7µg/mL*
CCCn1c(CCc2ccccc2)nnc1SCC(=O)Nc1cccc(C(F)(F)F)c1 | i
